Source: PubChem (National Center for Advancing Translational Sciences (NCATS))
HSD17B inhib = HSD17B dehydrogenase inhibition. 75,000 compounds, 7.6% hits. recombinant HSD17B10, NADH fluorescence kinetic; many of its hits are not listed in these tables. Q99714. Potency, µM (top dose mostly 57.1 µM), inactives show top-dose activity change, negative = inhibition, hits mostly inhibitors; active = well fitted inhibition curve with a large enough effect; inconclusive = small, poorly fitted or top-dose-only effect; inactive = no such curve, though single readings can be large or run the other way;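 note: the protocol describes HADH2 (HSD17B10) and not the HSD17B4 of the title; nearly all actives have a fitted effect of over 70% in size; most hits overshoot -100% by far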
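His-tagged E. coli-expressed HADH2 at 20 nM in 100 mM Tris-HCl pH 9.0 with 0.01 % Tween-20, preincubated 15 min with compound at room temperature. Reaction with 1 mM NAD+ and 90 uM beta-hydroxybutyryl coenzyme A; NADH fluorescence (360/450 nm) read kinetically over 4 min, last minus first point.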
The depositor's hits bear a star; u = inconclusive; [ ] = another dose, or the depositor's remark. % is set by controls: 0 for no effect and ±100 for the full control effect; potency is the fitted concentration of half-maximal effect.

SMILES | HSD17B inhib
CCc1cc2c(c(CC)n1)CCC(=O)N2Cc1ccc(-c2ccccc2-c2nn[nH]n2)cc1 | u
CC(NC(=O)c1cccs1)C(=O)NC1=NCCS1 (stereo not drawn) | 10%
COCCNC(=O)CN(C(=O)CCC(=O)Nc1nccs1)c1ccccc1OC | -5%
COc1ccccc1CN1CCC2(CC1)CCN(C(=O)c1c(C)noc1C)CC2 | -3%
CC1=CC2C(C(C)C)CCC(C)(O)C2CC1 (stereo not drawn) | -5%
CC(=O)Nc1sc2c(c1C(c1cccs1)N1CCOCC1)CCCC2 (stereo not drawn) | -8%
CCOC(=O)C1C(=O)N(C(=O)c2ccc(OC)cc2)CC1c1ccccc1 (stereo not drawn) | -2%
c1csc(-c2ncc3ccccn23)c1 | -10%
O=C(CSCc1nc2ccccc2[nH]1)N1CCN(c2ccc(F)cc2)CC1 | -8%
O=c1[nH]c(Cl)nc2c1ncn2C1OC(CO)C(O)C1O (stereo not drawn) | 5%
COCc1c(C)cc(C)c(/C=N/O)c1C | 3%
COCCCn1c(-c2ccco2)nc2ccccc2c1=O | 4%
CCOC(=O)N1CCN(S(=O)(=O)c2ccc(C)c(C)c2)CC1 | 10%
O=C(CN1CCOCC1)Nc1ccc(OCc2ccccc2)cc1 | -3%
O=C(Nc1ccc(-c2cn3ccccc3n2)cc1)c1cc(Br)ccc1O | 0%[11.4 µM]
O=P(O)(O)CP(=O)(O)O | 10%
COC(=O)c1ccc(CSc2nnc3c(Cl)cc(Cl)cn23)o1 | 8%
CCOC(=O)CC1Sc2ccccc2NC1=O (stereo not drawn) | -3%
COc1ccc(C2C(C(=O)O)CC(=O)N2C2CCCCC2)cc1 (stereo not drawn) | 10%
CN1CCN(Cc2nc3c(c(=O)[nH]c(=O)n3C)n2Cc2c(F)cccc2Cl)CC1 | 2%
CCCC(=O)Nc1nc2ccc(S(N)(=O)=O)cc2s1 | 9%
Cc1c(O)ccc(C(=O)CN2C(=O)c3ccccc3C2=O)c1O | -5%
NCC1O[C@@H](OC2C(N)CC(N)C(O)C2O[C@@H]2OC(CO)C(O)C2O)C(N)C(O)C1O (stereo partly drawn) | 3%
Nc1nc2c(c(=O)[nH]1)CN(CCCN1CCOCC1)CN2 | 0%[11.4 µM]
O=C(c1noc2c1CCc1ccccc1-2)N1CCOCC1 | -1%

Continued, overlapping the part above by two compounds.
SMILES | HSD17B inhib
Nc1nc2c(c(=O)[nH]1)CN(CCCN1CCOCC1)CN2 | 0%[11.4 µM]
O=C(c1noc2c1CCc1ccccc1-2)N1CCOCC1 | -1%
O=C(CSc1nnc(-c2ccc(Br)cc2)o1)Nc1cccc2ccccc12 | -3%
CC(=O)N(Cc1cccnc1)Cc1cc2ccccc2[nH]c1=O | u
COc1ccc(S(=O)(=O)N2Cc3ccccc3CC2C(=O)N2CCOCC2)cc1OC (stereo not drawn) | 3%
CC(=O)N1C(=O)N(C(C)=O)C2C1N(C(C)=O)C(=O)N2C(C)=O (stereo not drawn) | 4%
N[C@@H](C(=O)O)[C@H](CC(=O)O)c1ccc(Cl)cc1 | 2%
Cc1cccc(OCc2nnc3n2CCCCC3)c1 | 6%
O=C(Nc1c(F)cc(F)cc1Br)c1cc(-c2ccco2)on1 | -15%
C=CCNS(=O)(=O)c1ccc(OCC(=O)OC)cc1 | 5%
COc1ccc(-n2c(=O)c3c4c(sc3n3cnnc23)CC(C)CC4)cc1 (stereo not drawn) | 3%
CC(C)N1CC(C(=O)Nc2nc3ccccc3s2)CC1=O (stereo not drawn) | 3%
Cc1ccc(-c2nc3ccccc3c(=O)n2CCCn2ccnc2)cc1 | 5%
Cc1ccc(NC(=O)CS(=O)CC(=O)NCC2CCCO2)cc1 (stereo not drawn) | -4%
COc1ccc(C)cc1-n1c(N)c(C#N)c(C#N)c1-c1ccc(OC)c(OC)c1OC | -19%
C#CCOc1nc(OCC#C)nc(OCC#C)n1 | 5%
CC(=O)N1CCN(C)CC1 | 0%
O=C(NCc1ccco1)c1cc(-c2ccc3c(c2)OCO3)on1 | 25µM*
Cc1ccc(C(=O)CC2(O)C(=O)N(C)c3ccccc32)o1 (stereo not drawn) | 4%
O=C(C1CCC1)N1CCc2cc(S(=O)(=O)NCC3COc4ccccc4O3)ccc21 (stereo not drawn) | -5%
NS(=O)(=O)c1ccc(NC=C2C(=O)OC3(CCCCC3)OC2=O)cc1 | -7%
CCN(c1cccc(C(F)(F)F)c1)S(=O)(=O)c1ccc2c(c1)CCN2C(C)=O | -5%
COCCN(C(=O)Nc1ccc(OC)cc1OC)C1CCN(C(C)=O)CC1 | 0%
COc1cccc(-n2c(SCC(=O)OC(C)C)nnc2-c2cccnc2)c1 | -1%
O=C(O)CCC(=O)N1CCC[C@H]1C(=O)O | -9%
CC(C)CC(=O)Nc1c2c(nn1-c1ccc(F)cc1)CSC2 | -2%
O=C(O)CCN1C(=O)c2ccccc2C1=O | -1%

An excerpt from above in order of molecular weight, rising:
SMILES | HSD17B inhib
CC(C)N1CC(C(=O)Nc2nc3ccccc3s2)CC1=O (stereo not drawn) | 3%
O=C(NCc1ccco1)c1cc(-c2ccc3c(c2)OCO3)on1 | 25µM*
Cc1ccc(-c2nc3ccccc3c(=O)n2CCCn2ccnc2)cc1 | 5%
O=C(Nc1c(F)cc(F)cc1Br)c1cc(-c2ccco2)on1 | -15%
COc1ccc(S(=O)(=O)N2Cc3ccccc3CC2C(=O)N2CCOCC2)cc1OC (stereo not drawn) | 3%

More records:
SMILES | HSD17B inhib
CCCN1CCC(NC(=O)Nc2ccc(OC)c(OC)c2)CC1 | 4%
CCc1ccc(-c2nc(CN3CCC(C(=O)NCCc4ccc(OC)c(OC)c4)CC3)c(C)o2)cc1 | -4%
COC(=O)c1cc(OC)c(OC)cc1-n1cnc2cc(OC)c(OC)cc2c1=O | 3%
Cc1noc(C)c1S(=O)(=O)N1CCC(C(=O)Nc2ccccn2)CC1 | 1%
CC1(C)CC(=O)C(C=NCC2CCN(C(=O)Nc3ccccc3)CC2)=C(O)C1 | 2%
CCOCCCn1c(=S)[nH]c2cc(C(=O)N3CCC(C(N)=O)CC3)ccc2c1=O | 2%
CCC(=O)N1CCN(c2ccccc2NC(=O)COc2ccccc2Cl)CC1 | 7%
COC(=O)[C@@H]1C[C@@]2(O)[C@@H](O)[C@@H](O)[C@@H](O)C[C@H]2N1Cc1ccc(C(F)(F)F)cc1 | -2%
CC(C)[N+](C)(CCOC(=O)C1c2ccccc2Oc2ccccc21)C(C)C | 2%
O=C(c1cc(C(F)(F)F)cc(C(F)(F)F)c1)N1CCC2(CCCN(Cc3nccs3)C2)CC1 | -5%
Cn1c(=O)c2c(O)cc(=O)[nH]c2n(-c2ccccc2)c1=O | 11%
Oc1cccc2ccc(Nc3ccccn3)nc12 | -9%
CCN(CCCNC(=O)CCCn1c(=O)[nH]c2ccccc2c1=O)c1cccc(C)c1 | -13%
CCN1CCC[C@@H](OC(=O)C(c2ccccc2)c2ccccc2)C1 | -1%[25.6 µM]
CCOC(=O)C1=C(CC)Nc2ccccc2N=C1NC(=O)Cn1cnc2ccccc2c1=O | -2%
Cc1nc2c(c(=O)n1Cc1ccco1)c1nc3ccccc3nc1n2Cc1ccccc1 | 25µM*
c1cc2c3c(cccc3c1)NC1(CCCCCC1)N2 | u
COc1cccc(N2CCN(C(=O)CN(c3ccc(C)cc3)S(=O)(=O)c3c(C)n[nH]c3C)CC2)c1 | 2%
Cc1nn(-c2ccccc2)c2sc(C(=O)OC3CCOC3=O)cc12 (stereo not drawn) | 32µM*
CCn1nc(CC(=O)Nc2ccc(-n3cnnn3)c(C)c2)c2ccccc2c1=O | 1%
COc1ccc2cc3cc(C(=O)NCCN4CCN(c5ccccc5F)CC4)oc3nc2c1 | 13µM*
COc1ccc(N2CCN(C(CNC(=O)c3ccco3)c3cccnc3)CC2)cc1 (stereo not drawn) | 15%
COc1ccc(-n2c(Cc3cccn3C)nnc2SCC(=O)Nc2ccc(F)cc2F)cc1 | -4%
CCOC(=O)C1=C(C)NC(=O)NC1c1ccco1 (stereo not drawn) | -13%
O=C(Nc1cccc(-c2cn3cccnc3n2)c1)c1ccc2c(c1)OCO2 | 25µM*
SMILES | HSD17B inhib
CC1(C)OCC([C@H](O)C2=CCCCC2=O)CO1 | 4%[11.4 µM]
Cc1ccc2nc(NC(=O)CNS(=O)(=O)c3ccc(Br)s3)sc2c1 | 2%
CCN(CC)C(=O)NC1CC2CCCC(C1)N2Cc1ccccc1 (stereo not drawn) | 0%
CCn1nc(C(=O)NC2=NCCS2)c2ccccc2c1=O | -8%
O=C(C1CCCCN1S(=O)(=O)c1ccc(F)cc1)N1CCN(c2ccccc2F)CC1 (stereo not drawn) | 4%
Cc1cc2nc(-c3ccc(NC(=O)c4cccnc4)cc3)oc2cc1C | 435%[activator]
O=C1N=C(c2ccccc2)C(c2ccccc2)N1 (stereo not drawn) | 25µM*
C=CCOC(=O)COc1ccc2c(C)c(C)c(=O)oc2c1C | 166%[activator]
COc1ccc2[nH]c(=O)c(CN(CCCN(C)C)C(=O)Nc3ccc(F)cc3)cc2c1 | 32µM*
COc1ccc(NC(=O)CCSc2nnc(C)s2)cc1 | 5%
Cc1nnc(SCc2ccc(CC(=O)O)cc2)o1 | -4%
COc1ccc(-c2cc(-c3ccccc3O)[nH]n2)cc1OC | -22%
Cc1ccccc1Cn1ccc(NC(=O)c2cnn3cccnc23)n1 | -14%
CC1Cc2ccccc2N1C(=O)c1cccnc1 (stereo not drawn) | 5%
O=S1(=O)C=CC(Sc2nc3ccccc3[nH]2)C1 (stereo not drawn) | 3%
O=C(CCC1N=C2c3ccccc3N=C(SCc3cccc(Cl)c3)N2C1=O)NCc1ccco1 (stereo not drawn) | u
C=C(C)CSc1nnc(-c2ccccc2)n1N | 2%
O=C1C(c2ccc(F)cc2)N(Cc2ccc3c(c2)OCO3)C(=O)CN1C1CCCCC1 (stereo not drawn) | -11%
O=C1Cc2ccccc2C(c2ccccc2)N1 (stereo not drawn) | 3%
OB(O)c1cc2ccccc2s1 | 9%
COc1cccc(-c2cc(C(=O)N3CC4(C)CC3CC(C)(C)C4)no2)c1 (stereo not drawn) | -15%
CCOc1ccc(C(=O)Nc2ccc3c(c2)OCO3)cc1OCC | 19%
CCOC(=O)c1sc(SCC(=O)Nc2ccc(N(C)C)cc2)nc1N | -1%
O=C(Cn1cnc2c(oc3ccccc32)c1=O)N1CCCc2ccccc21 | 5%
O=C(CSc1nnnn1-c1ccccc1)Nc1ccc(Cl)cn1 | -7%

The closing four entries of the part above lead into the next.
SMILES | HSD17B inhib
CCOc1ccc(C(=O)Nc2ccc3c(c2)OCO3)cc1OCC | 19%
CCOC(=O)c1sc(SCC(=O)Nc2ccc(N(C)C)cc2)nc1N | -1%
O=C(Cn1cnc2c(oc3ccccc32)c1=O)N1CCCc2ccccc21 | 5%
O=C(CSc1nnnn1-c1ccccc1)Nc1ccc(Cl)cn1 | -7%
COc1ccc2cc3cc(C(=O)Nc4ccc5c(c4)OCO5)oc3nc2c1 | -4%
C=CCn1c(COc2cccc3ccc(C)nc23)nnc1SCC(N)=O | u
C[C@H]1CN(S(=O)(=O)c2cccc3cnccc23)CCN1 | 8%
CCOc1ccc(C(=O)NCCn2cc(SCC(=O)Nc3cc(C)on3)c3ccccc32)cc1 | -8%
COc1ccc2[nH]c(C)c(CN3CCCC(C)C3)c(=O)c2c1 (stereo not drawn) | 16µM*
NC(=O)c1nn(-c2ccccc2)nc1NC(=O)CN1CCCCC1 | u
CCN1c2ccccc2NC2N=C(OC)C(c3ccccc3)C21 (stereo not drawn) | -3%
CC1CN(CC(O)COc2ccccc2C(C)(C)C)CC(C)O1 (stereo not drawn) | 10%
N#C/C(Cn1c[n+](NC(=O)Nc2ccccc2)cn1)=N/O | 6%
CCC(C)N1C(=O)CCC1C(=O)NCc1ccc2c(c1)OCO2 (stereo not drawn) | 2%
Cn1c(N)c(C(=O)COC(=O)c2cc(C3CC3)nc3ccccc23)c(=O)n(Cc2ccccc2)c1=O | u
CC(C)CNC(=O)C1CCCN(S(=O)(=O)c2ccc(-n3cnnn3)cc2)C1 (stereo not drawn) | 2%
Nc1c(Br)cc(Br)cc1CNC1CCC(O)CC1 (stereo not drawn) | -1%
N[C@@H](Cc1cc(CP(=O)(O)O)cc(-c2ccccc2Cl)c1)C(=O)O | 32µM*
O=C(c1ccc2c(c1)OCO2)N1CCN(c2ccc(Cl)cc2)CC1 | 2%
COc1ccccc1OCCC(=O)OCCN1C(=O)c2ccccc2C1=O | 1%
COc1cc(CNc2ccc3[nH]c(=O)[nH]c3c2)cc(Cl)c1OCC(=O)NC(C)(C)C | u
O=C(CSc1nc(-c2ccc(F)cc2)cs1)N1CCN(C(=O)c2ccco2)CC1 | -4%
COc1ccc(/C=C(\C#N)C(N)=O)c(OC)c1 | 2%[11.4 µM]
O=c1cc(CO)oc(CN2CCCC2)c1O | 7%
Cc1cc(Nc2ccc(F)cc2C)n2ncnc2n1 | 5%
CN(C)c1nc(-c2cccc(C#N)c2)nc2ccccc12 | u
CCCCCC(=O)Nc1ccc(S(=O)(=O)Nc2nccnc2OC)cc1 | -6%
COc1ccc(-c2nnc(SCC(=O)c3cc(C)n(Cc4cccs4)c3C)o2)cc1 | u
c1csc(-c2nn3c(Cn4nnc5ccccc54)nnc3s2)c1 | 0%
CN(c1ccccc1C(=O)NCc1ccco1)S(C)(=O)=O | -10%
CCN1CCn2c3c(c4cc(C)ccc42)CCCC31 (stereo not drawn) | u

These rows are one share of the data. The share of hits here may be higher or lower than overall.
